High-throughput results (PubChem)
Vaccinia Venus: vaccinia inhibition (Venus reporter); Vaccinia virus Venus reporter expression, fluorescence; Potency, µM (highest dose often 36.5 µM), for the others: at the top dose activity change, negative = inhibition, most hits filed as inhibitors; actives 0.46% (n = 330,000); AID 720580; active means well fitted inhibition curve with a large enough effect; inconclusive means small, poorly fitted or top-dose-only effect; inactive means no such curve, though single readings can be large or run the other way; tested in A549 cells; also: nearly all actives have a fitted effect of over 30% in size; inactives centre near -10
VACV mCherry inh: vaccinia inhibition (mCherry reporter); Vaccinia virus mCherry reporter infection, fluorescence; about a quarter of the inactives have no number; Potency, µM (highest dose often 36.5 µM), for the others: at the highest dose activity change, negative = inhibition, hits mostly inhibitors; actives 0.63% (n = 310,000); active = well fitted inhibition curve with a large enough effect; inconclusive = small, poorly fitted or top-dose-only effect; inactive = no such curve, though single readings can be large or run the other way; tested in A549 cells; also: nearly all actives have a fitted effect of over 35% in size; inactives centre near -10
* marks the source's active call; other numbers are inactive results; i = inactive; ? = inconclusive; · = no result given; & = joins results of further samples; [ ] = another dose, or the depositor's remark. % is scaled to controls: 0 for no effect and ±100 for the full control effect; potency is read from the fitted curve at half-maximal effect.

no.	compound	Vaccinia Venus	VACV mCherry inh
1	Cc1noc(C)c1S(=O)(=O)Nc1ccc(C(=O)O)cc1	-9%	-15%
2	CCC(CO)Oc1cc(NCc2ccccc2O)c2ncn(C(C)C)c2c1 (stereo not given)	-29%	-26%
3	CN(CC(=O)NCc1ccco1)CC(=O)Nc1ccc(F)c(F)c1F	-8%	i
4	CCOC(=O)Cn1c(=O)c(-c2ccccc2NCc2ccccc2)nc2ccccc21	-3%	-11%
5	COCCCNC(=O)Cn1c(=O)n(-c2ccccc2)c(=O)c2c1c1cc(OC)ccc1n2C	-1%	11%
6	O=C(CSc1nnc(-c2ccco2)n1-c1ccccc1)N1CCN(C(=O)c2ccco2)CC1	-14%	-21%
7	O=C(CSc1ccc2ccccc2n1)NCCC1=CCCCC1	-14%	i
8	CCn1ccc(C(=O)Oc2ccc(C(C)C)cc2)n1	8%	-26%
9	COC(=O)c1ccc(NC(=O)Cn2ccn3nc(-c4ccc(OC)cc4)cc3c2=O)cc1	10%	0%
10	COc1cc(/C=N/NC(=O)C(N)=O)cc(OC)c1O	-9%	-2%
11	O=C(CCN1C(=O)COc2ccccc21)NCCN1CCN(c2cccc(Cl)c2)CC1	?	-12%
12	N#CCCN(Cc1cccnc1)C(=O)c1ccc(S(=O)(=O)N2CCOCC2)cc1	-22%	-11%
13	Cc1nn(-c2ccccc2)c(Cl)c1/C=N\NC(=O)c1cncc(Br)c1	-3%	-3%
14	O=C(NCc1cccc(Cl)c1)c1ccc2ccccc2n1	-11%	0%
15	Nc1cc(N)cc(C(=O)Nc2ccc3c(c2)C(=O)NC3=O)c1	-13%	i
16	COc1cccc(C(=O)Nc2ccc3[nH]ncc3c2)c1OC	-4%	-13%
17	O=C(NCCc1ccc(Cl)cc1)c1ccc(OCC2CCCO2)cc1 (stereo not given)	-14%	-10%
18	CC(=O)c1ccc(NS(=O)(=O)c2cc(-c3cnc(C4CC4)o3)ccc2C)cc1	?	?
19	Nc1ccc(Cl)c(-c2nc3ncccc3o2)c1	-3%	-1%
20	O=C(CNC(=O)c1ccc(Cl)cc1)OCC(=O)c1ccccc1	-9%	-14%

The last seven compounds of the section above lead into the next.
no.	compound	Vaccinia Venus	VACV mCherry inh
14	O=C(NCc1cccc(Cl)c1)c1ccc2ccccc2n1	-11%	0%
15	Nc1cc(N)cc(C(=O)Nc2ccc3c(c2)C(=O)NC3=O)c1	-13%	i
16	COc1cccc(C(=O)Nc2ccc3[nH]ncc3c2)c1OC	-4%	-13%
17	O=C(NCCc1ccc(Cl)cc1)c1ccc(OCC2CCCO2)cc1 (stereo not given)	-14%	-10%
18	CC(=O)c1ccc(NS(=O)(=O)c2cc(-c3cnc(C4CC4)o3)ccc2C)cc1	?	?
19	Nc1ccc(Cl)c(-c2nc3ncccc3o2)c1	-3%	-1%
20	O=C(CNC(=O)c1ccc(Cl)cc1)OCC(=O)c1ccccc1	-9%	-14%
21	CCc1ccc(C2c3c(oc4ccc(C)cc4c3=O)C(=O)N2c2nc(C)c(C)s2)cc1 (stereo not given)	-5%	-2%
22	COc1cccc(CC(=O)OCC(=O)NC2(C#N)CCCC2)c1	-19%	-15%
23	CC1(C)OCC(COC(=O)Nc2cccnc2)([N+](=O)[O-])CO1	-3%	i
24	CC(C)C(=O)Nc1ccc(Oc2ccc3c(c2)C(=O)NC3=O)cc1	-14%	i
25	CC(CC(=O)N1CCN(S(=O)(=O)c2ccc(Cl)cc2)CC1)n1cncn1 (stereo not given)	-1%	8%
26	CCCc1cc(C(=O)N2CCN(C(c3ccccc3)c3ccccc3)CC2)no1	-5%	i
27	Cc1cc(-c2csc(NC(=O)c3ccc(=O)n(C)n3)n2)c(C)n1CC1CCCO1 (stereo not given)	-11%	-11%
28	COC(=O)Cc1ccc(NC(=S)NCc2ccc(F)cc2)cc1	-14%	-14%
29	O=C(NCc1ccc(F)cc1)c1ccc(CSc2nc3ccncc3n2Cc2ccc(F)cc2)cc1	-22%	-14%
30	Cc1cn(Cc2ccccc2)c(=O)[nH]c1=O	-4%	-4%
31	CC(=O)N1Cc2cc(C(=O)NCC(F)(F)F)nc(-c3cccc(-c4cccnc4)c3)c2[C@H]1CCO	-2%	-11%
32	O=c1[nH]c(Cc2cccs2)nc2scc(-c3ccc(Cl)cc3)c12	-7%	-10%
33	O=C(N/N=C/c1ccncc1)c1ccc(NC(=O)c2ccc(Cl)cc2)cc1	-5%	i
34	Cc1cc(CNC[C@H]2O[C@@H](n3ccc(N)nc3=O)[C@H](O)[C@@H]2O)no1	-8%	i
35	Cc1ccc(NC(=S)Nc2cc(C(=O)O)ccc2N2CC3CC(C2)c2cccc(=O)n2C3)cc1C (stereo not given)	-4%	-27%
36	COc1cccc(C(=O)Nc2nnc(CCS(=O)(=O)c3ccc(C)cc3)s2)c1	-13%	i
37	CNc1ncc(C(=O)c2ccc(Br)cc2)s1	-12%	-2%
38	Cc1cc(NC(=O)NC(C(F)(F)F)C(F)(F)F)no1	-12%	i
39	Cc1ccc(NC(=O)CSc2n[nH]c(-c3ccco3)n2)c(C)c1	-2%	-5%
40	Cc1ccccc1NC(=O)COC(=O)C1(C)CC1(Cl)Cl (stereo not given)	-9%	1%
41	CCOc1ccc(NC(=O)Nc2ccc(NC(C)=O)cc2)cc1	-12%	i
42	COc1ccc(-c2cnc3c(NC=O)cc(-c4cccc(NS(C)(=O)=O)c4)cn23)cc1OC	8.9µM*	6.3µM*
43	COc1cccc(-c2c(NC(=O)c3ccco3)oc3ccccc3c2=O)c1	-2%	11%
44	CCOC(=O)[C@]12CCC=C1N(Cc1ccc(Cl)cc1Cl)C(=O)[C@H](CC(=O)NCCCN1CCCC1=O)C2	-13%	-18%
45	Cc1ccc(NC(=O)c2ncn(CCCN3CCN(Cc4cccc5ccccc45)CC3)n2)cc1C	?	?
46	CCOc1ccc(CC(=O)NC2CC(=O)N(c3ccc4c(c3)OCCO4)C2)cc1 (stereo not given)	-7%[7.34 µM]	-16%[7.34 µM]
47	CC(C)C12CCC(C(=O)O)C(C1)C(=O)O2 (stereo not given)	-7%	i
48	Cc1ccccc1NC(=S)NC(NC(=O)c1ccccc1C)C(Cl)(Cl)Cl (stereo not given)	0%	-12%
49	CCN1CCC(NC(=O)Nc2ccc(F)cc2F)CC1	-16%	?
50	CC(=O)N1c2ccc(S(=O)(=O)N3CCC(C(=O)NC(C)c4ccccc4)CC3)cc2CC1C (stereo not given)	-18%	i
51	CCCCCCOc1ccc(/C=C/C(=O)Nc2sc3c(c2C(=O)OC)CCC3)cc1OC	-13%	-27%
52	Cc1cc(NC(=O)CCC(=O)N(CC(=O)NCC2CCCO2)c2cccc(F)c2)no1 (stereo not given)	-6%	-13%
53	CC1CCCC(NC(=O)c2ccc(CNc3c(N4CCCC4)c(=O)c3=O)cc2)C1C (stereo not given)	-2%	3%
54	COCc1cc(C)nc2sc(C(=O)Nc3ccc(C(C)=O)cc3)c(N)c12	-6%	i
55	O=C1C=C(O)c2[nH]c(=O)ccc2C1=O	5%	10%
56	C=CCn1c(SCC(=O)N2N=C(c3ccco3)CC2c2ccco2)nnc1-c1ccncc1 (stereo not given)	-12%	i
57	O=C(Nc1ccc(S(=O)(=O)N2CCOCC2)cc1)c1ccc(Cl)cc1	-14%	-6%
58	O=C(COC(=O)CCc1ccc(S(=O)(=O)N2CCOCC2)cc1)NCc1ccccc1	-5%	i
59	Cc1ccc(CSCCNC(=O)c2ccccc2)cc1	-9%	-10%
60	CCOc1ccc(S(=O)(=O)N2CCN(C(=O)c3cc(-c4ccccc4)nn3-c3ccccc3)CC2)cc1	-17%	i
61	COc1ccc(C(CC(=O)Nc2cc(OC)c(OC)c(OC)c2)N2Cc3ccccc3C2=O)cc1 (stereo not given)	-12%	-14%
62	COc1ccccc1Nc1nc(NCc2ccco2)c2ccccc2n1	-17%	?
63	COC(=O)c1ccsc1NC(=O)CN1CCN(c2ncccn2)CC1	-3%	-7%
64	CCCN1CCc2c(sc(NC(=O)CCS(=O)(=O)c3ccccc3)c2C(=O)OC)C1	-28%	?
65	O=C(NCc1ccco1)c1csc2c1CCCCC2	-14%	-1%
66	CC1CC(C)CN(CCCNC(=O)C2CCN(S(=O)(=O)N3CCCCC3)CC2)C1 (stereo not given)	-15%	-2%
67	CC(=O)c1ccc(NC(=O)Cn2cc3c(n2)CCCC3)cc1	-14%	0%
68	Cc1ccc(CNc2nnc(C)c3nnn(Cc4ccc(F)cc4)c23)cc1	-33%	?
69	O=C(Cc1ccccc1)NCC(=O)Nc1cc(Cl)ccc1Cl	-13%	-30%
70	CN(C)c1ccc(-c2nc(-c3ccncc3)no2)cc1[N+](=O)[O-]	-15%	-18%
71	COc1ccc(Cl)cc1C(=O)O/N=C(\N)c1ccc(Cl)cc1	-7%	i
72	COc1ccc(OCC(=O)Nc2ccc(N3CCN(C(=O)c4ccccc4C)CC3)cc2)cc1	-6%	-15%
73	CCc1cccc(C)c1N(C(=O)Cn1c(=O)[nH]c2ccccc21)C(C)COC (stereo not given)	?	·
74	CCc1c(C)nc(SCC(=O)N2CCN(c3ccccc3OC)CC2)[nH]c1=O	-3%&-4%	-13%
75	O=C(CN1CCN(CCOCCO)CC1)N1c2ccccc2Sc2ccc(Cl)cc21	-21%	-1%
76	CCCC1=Nc2cc(C(=O)NC(C)c3ccccc3)ccc2Sc2ccc(C)cc21 (stereo not given)	-28%	-29%
77	CC(C)CC(=O)n1nc(-c2ccco2)nc1NCc1ccc(Cl)cc1	-11%	-18%
78	O=C1C2CCCN2C(c2ccccc2)N1c1cccc(Cl)c1 (stereo not given)	-9%	-4%
79	Cc1cc(-c2ccc(C)c(S(=O)(=O)N(Cc3cccs3)C(C)C)c2)on1	?	-4%
80	O=[N+]([O-])c1ccc(CC(Cl)c2ccccn2)cc1 (stereo not given)	-1%	-15%

Reprinted at random: 2 records from the list
no.	compound	Vaccinia Venus	VACV mCherry inh
62	COc1ccccc1Nc1nc(NCc2ccco2)c2ccccc2n1	-17%	?
79	Cc1cc(-c2ccc(C)c(S(=O)(=O)N(Cc3cccs3)C(C)C)c2)on1	?	-4%

Next part.
no.	compound	Vaccinia Venus	VACV mCherry inh
81	CCOc1ccc(N2CC(C(=O)NCCN3C(=O)S/C(=C\c4ccc(OC)cc4)C3=O)CC2=O)cc1 (stereo not given)	-1%	-19%
82	COC(=O)c1ccc(COc2ccc3ccc(=O)oc3c2)o1	-19%	i
83	CCOc1ccc(CN(C)C(=O)c2cccnc2OCC)cc1OC	-10%	i
84	CC(C)(C)NC(=O)C(c1ccc(F)cc1)N(CC1CCCO1)C(=O)CCC(=O)Nc1ccccn1 (stereo not given)	3%	i
85	CCOc1ccc(C(=O)NC(=S)Nc2ccc(NC(=O)CC)cc2)cc1[N+](=O)[O-]	-12%	i
86	CC(=O)c1cccc(NC(=O)C2=CC(c3ccc(F)cc3)=NS(=O)(=O)N2C)c1	-7%	-2%
87	CC1CC(C)CN(CC(C)(C)NS(=O)(=O)c2ccccc2)C1 (stereo not given)	-10%	i
88	N#CC(=C1CCCC1)c1nc(-c2ccccc2)cs1	?	-14%[1.46 µM]
89	Cn1c(=O)c2c(ncn2CC(=O)N/N=C/C=C/c2ccco2)n(C)c1=O	3%	i
90	Cc1ccc2c(c1)N(C(=O)CCC(=O)NC1CCN(Cc3ccccc3)CC1)CC(C)O2 (stereo not given)	-18%	-6%
91	COc1ccccc1Nc1nc(-c2c(C)nc3ncccn23)cs1	-29%	?
92	O=C(O)CC1Cc2ccccc2C1C(=O)O (stereo not given)	7%	i
93	O=C(O)c1cnn(-c2nc(-c3ccc(F)cc3)cs2)c1C(F)(F)F	-13%	-3%
94	NC1=NC(c2cn[nH]c2-c2cccc(F)c2)n2c(nc3ccccc32)N1 (stereo not given)	0%	-1%
95	COc1ccc(CC(=O)OCC(=O)c2ccc(OC)c(OC)c2)cc1	-10%	0%
96	Clc1ccc2nc3c(c(-c4ccccc4)c2c1)CNCC3	-6%	-8%
97	O=C1N[C@@H](Cc2ccccc2)COC(=O)[C@@H](Cc2ccc(F)cc2)CC/C=C/C[C@@H]1CC(=O)N(CCO)Cc1ccccc1	?	10µM*
98	N#Cc1nc(-c2ccco2)oc1N1CCCC1	-4%	-15%
99	COc1ccccc1CCNC(=O)c1cc(-c2ccncc2)nc2ccc(Br)cc12	-4%	5%
100	COc1ccc([C@@H]2CC=C(C(=O)O)[C@H](c3ccc(Cl)cc3)N2S(=O)(=O)c2ccccc2C)cc1	-22%	?

Structures shown so far that contain a CF3 group:
no.	compound	Vaccinia Venus	VACV mCherry inh
31	CC(=O)N1Cc2cc(C(=O)NCC(F)(F)F)nc(-c3cccc(-c4cccnc4)c3)c2[C@H]1CCO	-2%	-11%
38	Cc1cc(NC(=O)NC(C(F)(F)F)C(F)(F)F)no1	-12%	i
93	O=C(O)c1cnn(-c2nc(-c3ccc(F)cc3)cs2)c1C(F)(F)F	-13%	-3%

(list continues)
no.	compound	Vaccinia Venus	VACV mCherry inh
101	Cc1cc(C(=O)COC(=O)c2ccc[nH]c2=O)c(C)n1-c1ccc(Br)cc1	-20%	i
102	CCOC(=O)c1ccccc1NS(=O)(=O)c1ccc(S(=O)(=O)N2CCCC2)cc1	0%	-10%
103	O=C(NC1CCSc2ccccc21)c1c(F)cccc1Cl (stereo not given)	7%	-2%
104	COc1cc(OC)cc(OC(=O)c2cccc(S(=O)(=O)N3CCN(C)CC3)c2)c1	-13%	-23%
105	CCOc1ccc(NC(=O)C(C)NS(=O)(=O)c2ccc(NC(C)=O)cc2)cc1 (stereo not given)	-7%	-11%
